NPR1 antag – blocks ANP-stimulated signaling of human Npr1 receptor. P16066. HEK293 hNpr1 GloSensor cGMP, ANP-stimulated luminescence. Potency, µM (titrated, usually from 46.3 µM), without a hit: at the highest dose activity change, negative = inhibition, most hits filed as inhibitors. 76,000 tested, 1.6% active; active = well fitted inhibition curve with a large enough effect; inconclusive = small, poorly fitted or top-dose-only effect; inactive = no such curve, though single readings can be large or run the other way;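 further: nearly all actives have a fitted effect of over 60% in size; nearly all hits also lower the signal before the agonist is added; a reference antagonist and vehicle were the controls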
Target sequence (P16066 whole entry, looked up): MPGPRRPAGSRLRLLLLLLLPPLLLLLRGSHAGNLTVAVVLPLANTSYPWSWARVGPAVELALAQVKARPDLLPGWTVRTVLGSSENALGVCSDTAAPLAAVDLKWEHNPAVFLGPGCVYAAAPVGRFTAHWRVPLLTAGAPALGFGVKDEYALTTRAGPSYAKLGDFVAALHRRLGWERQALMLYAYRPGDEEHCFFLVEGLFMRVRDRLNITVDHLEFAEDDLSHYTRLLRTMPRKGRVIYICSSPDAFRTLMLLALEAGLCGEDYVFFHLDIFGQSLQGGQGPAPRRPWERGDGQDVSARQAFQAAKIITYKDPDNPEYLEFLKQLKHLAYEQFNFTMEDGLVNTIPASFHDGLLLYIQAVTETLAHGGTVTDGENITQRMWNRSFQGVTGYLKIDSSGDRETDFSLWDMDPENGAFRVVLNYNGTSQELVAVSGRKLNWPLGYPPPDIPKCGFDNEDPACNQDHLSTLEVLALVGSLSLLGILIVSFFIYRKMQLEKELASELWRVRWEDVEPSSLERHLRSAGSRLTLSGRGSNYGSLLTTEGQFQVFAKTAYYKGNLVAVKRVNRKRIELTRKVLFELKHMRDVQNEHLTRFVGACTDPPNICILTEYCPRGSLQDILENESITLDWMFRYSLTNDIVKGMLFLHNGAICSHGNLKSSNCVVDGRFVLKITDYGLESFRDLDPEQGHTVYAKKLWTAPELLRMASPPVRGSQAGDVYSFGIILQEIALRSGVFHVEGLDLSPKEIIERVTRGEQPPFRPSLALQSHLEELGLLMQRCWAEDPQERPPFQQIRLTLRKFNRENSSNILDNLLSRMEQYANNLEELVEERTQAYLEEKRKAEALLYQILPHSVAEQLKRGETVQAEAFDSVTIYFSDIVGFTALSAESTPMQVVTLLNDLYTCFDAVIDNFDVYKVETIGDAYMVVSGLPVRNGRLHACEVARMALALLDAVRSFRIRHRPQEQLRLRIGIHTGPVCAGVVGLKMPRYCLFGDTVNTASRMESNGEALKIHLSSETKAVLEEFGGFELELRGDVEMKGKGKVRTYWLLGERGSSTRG
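HEK293 cells stably expressing human Npr1 and cGMP GloSensor pGS-40F, loaded 2 h with 2% GloSensor reagent, given compound 30 min at room temperature. Luminescence read before and 20 min after 0.1 nM hNppA.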
* = called active by the depositor; ? = inconclusive; & = joins results of further samples; [ ] = remark or other dose. On the % scale 0 is the no-effect control and ±100 the full control effect; potency means the concentration at half of the fitted maximal effect.

SMILES	NPR1 antag
CC(C)(CC(=O)O)CC(=O)N1Cc2[nH]cnc2C[C@H]1c1nc(-c2ccncc2)no1	-0.6%[70.6 µM]
CSCCCN1C[C@@H](C(=O)O)C[C@H](C(=O)NCc2ccccn2)C1	-0.5%
COCCN1CCC2(CCC1=O)CCN(C(=O)Nc1cccc(Br)c1)CC2	-2.4%
O=C(c1ccc(Cl)nc1)N1CCC2(CC1)CC(Cc1ccccc1)=NO2	4.4%
CCn1cc(S(=O)(=O)N2C[C@@H](Oc3cccnc3)C[C@H]2C(N)=O)cn1	0.1%
COCCCNC(=O)c1ccc2c(c1)n(Cc1ccc(OC)cc1)c(=O)c1ccnn12	7.6%
COc1ccc(C(=O)N2CCN(CC3CC3)[C@@H]3CS(=O)(=O)C[C@@H]32)c(C)c1	3.2%
COC1CN(c2cccc(F)c2)C12CCN(C(=O)CC1CCCC1)CC2 (stereo unspecified)	-8.8%
COCC1CN(C2CCC2)CC12CCN(C(=O)c1cn(C)cn1)CC2 (stereo unspecified)	-9.4%
O=C1CCC2(CCN1CC1CC1)CCN(C(=O)C1CC=CC1)CC2	0.0%
O=C(C1CC1)N1CCCC(CN2CCOCC2)CC1 (stereo unspecified)	7.6%
CC(C)c1noc([C@@H]2C[C@H](NS(=O)(=O)c3ccc(C#N)cc3)CN2C)n1	-13.5%[70.6 µM]
COCc1ccc2c(c1)c(OC(C)(C)C(=O)N(C)C)nn2Cc1ccccc1	3.5%[70.6 µM]
O=C(NC1CC(=O)N(Cc2ccccc2C(F)(F)F)C1)c1ccsc1 (stereo unspecified)	-0.3%
CCCCN1C(=O)c2ccccc2C(C(=O)Nc2ccccn2)C12CCCC2 (stereo unspecified)	-0.1%
Cc1ccc(C2Cn3nnc(-c4noc(-c5cc(Cl)ccc5F)n4)c3CO2)cc1 (stereo unspecified)	4.1%
Cc1c(-c2ccccc2F)[nH]c2ccc(CNC(=O)CCN3CCCC3=O)cc12	0.1%
CCS(=O)(=O)Nc1ccc(C)n(CC(=O)NCc2ccccc2C)c1=O	0.8%
COc1ccc(C(=O)N2CCC(c3n[nH]c(=O)n3-c3ccccc3)CC2)c(OC)n1	8.0%
CC1CCN(c2ccc(CNC(=O)CN3CCCc4nc(C5CC5)ncc4C3=O)cc2)CC1	3.9%
CNC(=O)c1cc(-c2ccc(OC)c(OC)c2)cc2c1OCCN2Cc1cccnc1	2.1%[70.6 µM]
COc1cccc(C(=O)N2CCC(c3nc(-c4cccnn4)no3)CC2)c1	-1.5%
Cc1cccc(NC(=O)Cn2c(C)cc3nc4n(c(=O)c32)CCCCC4)c1	-1.8%
CCc1ccc(CN2CCC(CO)(CN3CCCC3)CC2)cc1	1.6%
CCO[C@H]1CN(C(=O)c2ccc(OC)c(N3CCOCC3)c2)C[C@@H]1O	0.3%
SMILES	NPR1 antag
CN(C)C(=O)c1nc(-c2ccc(F)cc2)c2cnccn12	17.3%[70.6 µM]
Cc1cccc([C@H]2C[C@@H](O)[C@@H](O)[C@@H]2NC(=O)C2CCOCC2)c1	-0.2%[70.6 µM]
CC(C)N1C(=O)C2(CCCC2)C1C(=O)NCc1ccc(N2CCOCC2)cc1 (stereo unspecified)	6.2%
COCCN1C(=O)CS(=O)(=O)C12CCN(C(=O)c1ccc(OC)c(F)c1)CC2	-11.9%
Cn1cnc2cc(-c3cccc(C(F)(F)F)c3)cc(C(=O)NCc3cccnc3)c21	-5.6%[70.6 µM]
O=C(NCC1CC1)c1cc(Br)cn2ccnc12	-6.0%&1.0%[70.6 µM]
COc1cc(-c2cc(-c3ccccc3)nc3c(C)noc23)ccn1	-18.7%[70.6 µM]
CCCOc1ccc(CNC(=O)c2c(OCC)cc(=O)n3c2CCCC3)cc1	-3.5%
O=C(c1ccoc1)N1C[C@@H](CO)[C@H](c2ccncc2)C1	-0.9%
C=CCN1C[C@@]2(C(=O)O)CN(c3nccc4ccccc34)C[C@H]2C1=O	3.0%
Cc1cc(C)cc(C(=O)N2CCC(OC3CCN(C)CC3)CC2)c1	1.0%
Cn1ncc(N2CCCC(CC(=O)N3CCN(Cc4ccccc4)CC3)C2)cc1=O (stereo unspecified)	3.0%
CC1=NOC2(CCN(Cc3ccc(N(C)C)cc3)C2)C1 (stereo unspecified)	0.0%[70.6 µM]
O=C(CCC1CCN(S(=O)(=O)c2cccc(F)c2)CC1)N1CCc2ccccc2C1	?
CCOC(=O)N1CCC(COc2ccc3c(cnn3CC[S+](C)(=O)[O-])c2)CC1	?
Cc1cccc(C(=O)N2CCC(N3C(=O)C4(CCCC4)C3c3scnc3C)CC2)c1 (stereo unspecified)	7.5%
COc1ccc(CC(=O)N2CC[C@@H](CC(=O)O)[C@@H](CCN3C[C@@H]4C[C@H](C3)c3cccc(=O)n3C4)C2)cc1	6.8%
COc1cccc(C(=O)N2CCCC2c2nc(C3CCOCC3)no2)c1 (stereo unspecified)	-14.6%
CC(C)CNC(=O)CC1COCCN1C(=O)c1ccc2c(=O)n(C)cnc2c1 (stereo unspecified)	4.9%
Cn1c(CCC(=O)N2CC[C@@H](O)C2)nc2cc(S(=O)(=O)N3CCCC3)ccc21	-0.4%
CN(C)CC(=O)N1CC(F)(F)C[C@H]1c1nc(C2CC2)no1	1.7%
O=C(c1ccc(Br)o1)N1C[C@@H](CO)[C@H](c2ccncc2)C1	-0.6%
Cc1cccc(-c2cnc3[nH]cc(CC(N)=O)c3c2)c1	-25.5%[70.6 µM]
COc1cc(-c2[nH]ncc2CN2CCCCC2c2nccs2)cc(OC)c1OC (stereo unspecified)	3.6%
Cn1cc([C@@H](NC(=O)CN2CCOc3ccccc3C2)C2CC(O)C2)cn1 (stereo partly specified)	1.2%
SMILES	NPR1 antag
CC(C)c1noc(-c2cn(C3CCCN(C(=O)c4ccc(F)c(Cl)c4)C3)nn2)n1 (stereo unspecified)	-9.3%
Cc1cc(C)cc(NC(=O)c2cc3n(n2)CC(c2ccc(Cl)cc2)OC3)c1 (stereo unspecified)	-7.0%
CCOc1cc(=O)n2c(c1C(=O)Nc1ccc(F)cc1Cl)CCCC2	4.5%
Cc1noc([C@@H](C)NC(=O)COc2ccccc2)c1C(=O)O	5.0%[70.6 µM]
COc1ccc(OCC(=O)N2CCC(Cc3nc(-c4cnccn4)no3)CC2)cc1	-1.6%
CCN1C(=O)COC[C@@H]1[C@H](O)c1ccc(NC(=O)COc2ccccc2)cc1	-5.7%[70.6 µM]
O=C1[C@@H]2C[C@@H](O)CN2C2(CN(C3CCOCC3)C2)C(=O)N1Cc1ccccc1	5.3%[70.6 µM]
Cc1ccccc1S(=O)(=O)N1CCCC(Cc2noc(-c3cccnc3)n2)C1 (stereo unspecified)	-26.1%
C[C@@H]1CN(C(=O)NCc2ccccc2F)CC[C@@]1(O)C1CCOCC1	9.0%
O=C(Nc1cnc(-c2ccccc2)nc1)C1CCCC1	10µM*
COc1ccc(C(=O)NCCn2ccn3nc(-c4ccc(F)cc4)cc3c2=O)cc1OC	-10.5%
O=C(c1cccnc1)N1CCC(N2CC3CC(C2)[C@H]2CCCC(=O)N2C3)CC1 (stereo partly specified)	-3.9%
Cc1ncoc1C(=O)N1CCCCCC1c1nnc(-c2ccccc2)o1 (stereo unspecified)	1.9%
CCN1c2cc(C(=O)Nc3ccc(Cl)cc3)ccc2C(=O)N2CCCCC21 (stereo unspecified)	-1.3%
O=C(Nc1ccnn1C1CCN(Cc2ccc3c(c2)CCO3)CC1)c1ccccc1Cl	0.2%
COc1cccc([S+](=O)([O-])N2CCC3(CC2)CC(=O)c2ccccc2O3)c1	3.4%
O=C(c1cnccn1)N1CC(F)(F)C[C@H]1c1nc(-c2ccncc2)no1	5.0%
COc1cccc(NC(=O)O[C@@H]2CC[C@]3(C)C(CC[C@@H](O)[C@H]3CC(=O)N3CCC[C@H]3CO)[C@]2(C)CO)c1 (stereo partly specified)	0.0%
O=C(NC1CCCCCCC1)C1CCCN(c2cnn(Cc3ccccc3)c(=O)c2)C1 (stereo unspecified)	?
CCn1ccc(C(=O)N2CCC(Cc3ccc(C(=O)N4CCOCC4)cc3)CC2)n1	0.6%
O=C(NCc1nnc2ccc(-c3ccccc3)nn12)c1ccoc1	-4.5%
COc1ccc(CNC(=O)c2cc3c(N4CCSCC4)nc(C)cn3n2)cc1	-15.6%
CC1CCCN(C(=O)C2CCCN(c3cnc4nccnc4c3)C2)C1 (stereo unspecified)	2.8%
O=C(NCC1CCOCC1)[C@@H]1C[C@@H](c2ccc(F)cc2)N([S+](=O)([O-])c2cccnc2)C1	-2.3%
O=c1[nH]c2cc(-c3nc(-c4cccnn4)no3)ccc2n1C1CCC(O)CC1 (stereo unspecified)	4.6%

An excerpt of these results, field by field.
COc1cccc([S+](=O)([O-])N2CCC3(CC2)CC(=O)c2ccccc2O3)c1
  NPR1 antag: 3.4%

O=C(Nc1ccnn1C1CCN(Cc2ccc3c(c2)CCO3)CC1)c1ccccc1Cl
  NPR1 antag: 0.2%

CC1CCCN(C(=O)C2CCCN(c3cnc4nccnc4c3)C2)C1 (stereo unspecified)
  NPR1 antag: 2.8%

COc1ccc(OCC(=O)N2CCC(Cc3nc(-c4cnccn4)no3)CC2)cc1
  NPR1 antag: -1.6%

The results go on:
SMILES	NPR1 antag
CCn1ncc(CN2CCCC23CCN(c2ccc(C(F)(F)F)cn2)CC3)c1C	0.0%
COc1cccc(CNC(=O)N2CC3CC(C2)[C@H]2CCCC(=O)N2C3)c1 (stereo partly specified)	-5.2%
O=C(c1cnccn1)N1CCC2(CC1)NC(=O)N(Cc1ccc(F)cc1)C2=O	0.2%
Cc1ccc(NC(=O)N2CCCC2c2nncn2-c2ccccc2)c(Cl)c1 (stereo unspecified)	0.3%
CS(=O)(=O)N[C@H]1C[C@H]2C(=O)Nc3ccc(-c4ccc(F)cc4F)cc3C(=O)N2C1	3.1%[70.6 µM]
COCCN1Cc2nc(OCc3cccnc3)ccc2OCC1=O	0.6%[70.6 µM]
O=C1[C@@H]2C[C@@H](CN2C(=O)c2ccccc2)Oc2ccccc2N1CC1CC1	1.0%[70.6 µM]
COc1ccc(CC(=O)N2c3ccccc3CC2c2nc(C(C)C)no2)cc1OC (stereo unspecified)	-4.4%
CN(C)CCO[C@H]1C[C@@H](O)C12CCN(C(=O)c1ccc3c(c1)OCO3)CC2	-1.6%
O=C(O)COc1ccc(-c2nccc3c2C(=O)N(Cc2c[nH]c4ccccc24)CC(CNC(=O)Cc2ccccc2)O3)cc1 (stereo unspecified)	-1.2%
CC(C)c1ccc(CC(=O)N2CCCc3ncc(C(=O)Nc4cccnc4)cc32)cc1	1.41µM*
CC(NC(=O)c1ccc(-c2ccccc2Cl)o1)c1ncnn1C (stereo unspecified)	-4.9%
Cc1cccc(NC(=O)N2CCC(Oc3ncccc3C(=O)N3CCCCC3)C2)c1C (stereo unspecified)	-0.7%
Cc1nn(Cc2ccccc2)c(C)c1[C@@H]1C=C[C@@H](NC(=O)c2ccco2)C1	-1.5%[70.6 µM]
CC(C)Oc1cccc2c1c(NC(=O)CCc1cc(=O)[nH]o1)nn2C	-2.3%
Cc1ccc(S(=O)(=O)Cc2noc([C@@H]3C[C@@H](O)CN3Cc3ccc(S(C)(=O)=O)cc3)n2)cc1	-0.3%
CC(C)CC(=O)N1CCN(c2nnc3ccccn23)CC1	1.8%
COc1cccc(C(=O)NCC2CCCN(Cc3ccc(C)s3)C2)c1OC (stereo unspecified)	0.2%
O=C(O)C1CC2(CCN(C(=O)c3ccccc3N3CCCC3)CC2)CN1 (stereo unspecified)	16.1%
Cc1cc(C)n2nc(C)c(C(=O)N3CCCC(c4cccc(C(=O)O)c4)C3)c2n1 (stereo unspecified)	2.9%
Cc1cc(C)n(CCC(=O)N2CCCC(c3noc(COc4ccccc4)n3)C2)n1 (stereo unspecified)	-4.8%
CCCN(C)c1nccnc1OC1CCN(C(=O)c2ccccc2OC)C1 (stereo unspecified)	-8.8%
CC(O)CCNS(=O)(=O)c1ccc2c(c1)CN(C(=O)CN1CCOC1=O)CC2 (stereo unspecified)	-3.5%
CC(C)NC(=O)CCc1cc2n(n1)CCN(C(=O)CN1CC(=O)NC1=O)C2	1.8%
COc1cccc(CC(=O)N2CCC(Cc3nc(-c4ccncc4)n[nH]3)C2)c1 (stereo unspecified)	-14.6%

A different layout for some results above.
NPR1 antag	molecule
2.9%	Cc1cc(C)n2nc(C)c(C(=O)N3CCCC(c4cccc(C(=O)O)c4)C3)c2n1 (stereo unspecified)
1.0%[70.6 µM]	O=C1[C@@H]2C[C@@H](CN2C(=O)c2ccccc2)Oc2ccccc2N1CC1CC1

Next section:
SMILES	NPR1 antag
COCCNC(=O)C1CCCN(C2CCN(C(=O)c3ccc(=O)[nH]n3)CC2)C1 (stereo unspecified)	2.1%
CC(=O)Nc1ccc(C(=O)N2CCC3(CC2)N=C(c2ccc(C)cc2)NO3)cc1	-8.5%
O=C(NCc1ccco1)C1COC2(CCN(C(=O)c3ccc(F)cc3)CC2)N1C(=O)c1ccccc1 (stereo unspecified)	-0.8%
COCC(=O)NC[C@@H]1C=C(C)[C@H](Cc2nc3ccccc3[nH]2)C[C@H]1C(C)C	-22.0%[70.6 µM]
COCc1cccc(-c2n[nH]c3c2CC(=O)N(CC2CC2)C3)c1	4.5%[70.6 µM]
COc1cncc(Nc2cnc3ccc(-c4cccc(CO)c4)nn23)c1	-10.7%[70.6 µM]
CCN(CC)CCn1cnc(-c2ccccc2)c1-c1cnc(C)s1	0.3%
O=c1n(CC2CC2)nc2n1CCN(C1CCCC1)CC2	-0.9%

Grouped by structure: those above with a thiophene ring, fused or not (2)
SMILES	NPR1 antag
O=C(NC1CC(=O)N(Cc2ccccc2C(F)(F)F)C1)c1ccsc1 (stereo unspecified)	-0.3%
COc1cccc(C(=O)NCC2CCCN(Cc3ccc(C)s3)C2)c1OC (stereo unspecified)	0.2%

High-throughput results deposited in PubChem BioAssay by National Center for Advancing Translational Sciences (NCATS).

The list is partial, so the mix of outcomes need not match the whole.
